# PABP polyA inh – PABP poly(A) RNA binding inhibitors, primary screen, biochemical, fluorescence polarization, uHTS. 1% of 290,000 active. inhibition, % at 35 µM. Polyadenylate-binding protein 1 (Homo sapiens), P11940;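 active = 50% or more with normal probe brightness, or confirmed in later tests; about a fifth of its hits are not listed in these tables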;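 note: calls also rest on retests at 20 µM and on dose response follow-up; controls were probe without protein and protein plus probe with vehicle; some compounds called inactive have numbers as strong as hits; many hits fall short of the cut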
# MT1-MMP act inh – blockers of MT1-MMP proenzyme processing, primary screen, HT1080 RFP-PRO-GFP cells, GFP/RFP fluorescence; 0.061% of 360,000 active; GFP/RFP ratio change, % at 20 µM; AID 651647, 2012; Matrix metalloproteinase-14 (Homo sapiens), P50281; GFP/RFP ratio fluorescence, overnight; percent of plate control window, DMSO zero;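 active = GFP/RFP ratio change of at least 30% with cell ATP level not reduced by more than half and red fluorescence within 50% of control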; note: strong numbers were not always called active
#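 Assay system: HT1080 RFP-PRO-GFP cells | Dosing: 20 µM single dose, 1% DMSO | Incubation: Cells overnight before dosing, compound overnight, 37 °C, 5% CO2 | Evaluation: GFP/RFP fluorescence ratio | Control set: DMSO-only wells and HT1080 RFP-L50D-GFP cell wells as references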
# Env fusion inh – inhibitors of HIV-1 Env-driven cell-cell fusion, primary screen, HeLa-JRFL effector, CEM21 target cells, luciferase | 1.1% of 360,000 active | inhibition, % at 12.3 µM;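 active = mean replicate inhibition score of at least 50 and every replicate individually at or above 50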;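 note: 0% = plate neutral controls and 100% = maraviroc near 300 nM; one replicate is shown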
# Rce1 inhib – yeast Rce1p protease inhibitors, primary screen, biochemical, fluorescence, cell-free homogeneous. calls only. yeast membranes, quenched prenylated peptide cleavage fluorescence. 0.27% of 290,000 active. CAAX prenyl protease 2 (Saccharomyces cerevisiae (strain ATCC 204508 / S288c)), Q03530;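 active = fall in fluorescence gain of 50% or more versus controls, with final raw signal at or below 3038400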;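 note: plate controls were neutral control wells for no effect and wells lacking membranes for full effect; tested at 10 µM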
# Target sequence (Q03530 whole entry, looked up): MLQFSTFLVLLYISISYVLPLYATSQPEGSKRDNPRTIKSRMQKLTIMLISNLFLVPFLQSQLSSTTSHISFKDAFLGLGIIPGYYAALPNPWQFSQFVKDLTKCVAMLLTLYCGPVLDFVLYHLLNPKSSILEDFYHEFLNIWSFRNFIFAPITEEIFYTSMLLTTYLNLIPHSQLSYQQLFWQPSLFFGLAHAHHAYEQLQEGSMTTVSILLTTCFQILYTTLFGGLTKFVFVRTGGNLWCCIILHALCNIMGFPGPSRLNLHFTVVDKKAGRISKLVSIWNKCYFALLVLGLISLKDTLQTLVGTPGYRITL
# CSC inhib – cancer stem cell viability inhibitors, primary screen, luminescence; 1.1% of 300,000 active; cancer stem cell-like cells viability; inhibition, % at 7.5 µM;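 active = mean at 75% or more and at least half the replicates too; tested in HMLE shEcad cells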;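 note: 0% = median of negative and 100% = median of positive control wells; the first replicate is given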
# eIF4H FP inh – human eIF4H binding inhibitors, primary screen, translation initiation inhibitor project, biochemical, uHTS, fluorescence polarization; Eukaryotic translation initiation factor 4H (Homo sapiens), Q15056; eIF4H fluorescence polarization binding assay; inhibition, % at 35 µM; 0.94% of 290,000 active; AID 2012, 2009;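 active = 50% or more with normal probe brightness, or confirmed in later tests; about a fifth of its hits are not listed in these tables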;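 note: calls also rest on retests at 20 µM and on dose response follow-up; 0% = protein and probe with vehicle and 100% = probe without protein; strong numbers were not always called active; many hits fall short of the cut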
# Yeast UUG start – modulators of yeast start codon fidelity, primary screen, whole organism, S. cerevisiae, single point, plate reader. S. cerevisiae UUG-firefly luciferase reporter, luminescence/redox ratio. activity score, % at 18.7 µM. 0.13% of 350,000 active. AID 602363, 2012;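 active = replicate mean at a twofold rise or more, about +100% in these data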;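 note: firefly luciferase made from a UUG start codon reports start codon fidelity; reporter light over untreated wells divided by growth signal over untreated wells; some hits fall short of that in this replicate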
# MT1-MMP act inh RFP – also measured in MT1-MMP act inh; calls as there; RFP signal change, %; measured here: RFP expression control read;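 0 = vehicle wells; hits needed this value within 50% of zero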
# * hit, by the source's call; i = inactive; · = no result given.
1	CNC(=S)NNC(=O)Cc1ccccc1
2	CN1CCNC(=O)C1CC(=O)N1CC=C(c2ccc(F)cc2)CC1 (stereo not drawn)
3	O=C1c2ccccc2C(=O)c2c([N+](=O)[O-])ccc(O)c21
4	CCCS(=O)(=O)c1c(S(=O)(=O)CCC)c2cnccn2c1C(=O)c1ccc(F)cc1
5	Cc1cc(C(F)(F)F)cc(NNC(=O)NC(=O)c2ccccc2Cl)n1
6	Cc1ccc(CN(C)C(=O)c2ccc(NS(=O)(=O)c3ccc4[nH]c(=O)[nH]c4c3)cc2)cc1

compound no.	1	2	3	4	5	6
PABP polyA inh	1	-6	16	-2	-5	·
MT1-MMP act inh	3	5	59	0	4	-5
MT1-MMP act inh RFP	3	-1	52	1	-1	1
Env fusion inh	-16	-4	-5	·	2	-9
Rce1 inhib	i	i	·	i	i	i
CSC inhib	-16	-13	13	·	-8	-4
eIF4H FP inh	-17	-13	18	5	12	·
Yeast UUG start	-28	0	-1	-28	-3	1

7	Cc1cc(C)cc(NC(=O)N2CCCN(c3ncccc3[N+](=O)[O-])CC2)c1
8	CCN(CC)CCNC(=O)CCN1N=C(c2ccccc2)CCC1=O
9	O=C(Nc1ccccc1)c1ccccc1Oc1ccc(C(F)(F)F)cc1[N+](=O)[O-]
10	CCOc1ccc(C(=O)c2ccccc2C(=O)O)cc1OCC
11	CCOC(=O)c1ccc(NC(=O)CN2CCN(CCN=CC3=C(O)CC(C)(C)CC3=O)CC2)cc1
12	COc1cc2c(c(OC)c1OC)-c1ccc(OC)c(=O)cc1[C@@H](N(C)CC#CCO)CC2

compound no.	7	8	9	10	11	12
PABP polyA inh	10	2	4	-6	8	-3
MT1-MMP act inh	2	1	1	1	5	25
MT1-MMP act inh RFP	1	3	-2	2	-3	3
Env fusion inh	10	-8	17	-10	1	-244
Rce1 inhib	i	i	i	i	·	i
CSC inhib	3	-25	12	-19	·	65
eIF4H FP inh	6	0	-7	22	10	-3
Yeast UUG start	-4	5	·	-5	-7	-7

13	O=C(CSc1c[nH]c2ccccc12)NCc1ccc2c(c1)OCO2
14	C=CCOn1c(=O)c(-c2ccc(F)cc2)[n+]([O-])c2ccccc21
15	O=[N+]([O-])c1cc(/C=N/n2cnnc2)ccc1N1CCCC1
16	O=C(NC(=S)NCCc1ccccc1)c1cccc(Cl)c1
17	O=C(NCc1ccccc1)c1ccccc1NC(=O)C1CCCCC1
18	Cn1c(=O)c2sccc2n(Cc2ccccc2)c1=O

compound no.	13	14	15	16	17	18
PABP polyA inh	-7	-10	-1	3	4	11
MT1-MMP act inh	17	1	10	-9	3	-1
MT1-MMP act inh RFP	-3	5	2	1	-1	-8
Env fusion inh	10	-9	48	-69	3	-1
Rce1 inhib	i	i	i	·	i	i
CSC inhib	0	·	-3	4	5	-21
eIF4H FP inh	-12	0	-7	2	-1	-7
Yeast UUG start	8	-11	5	-16	-16	-6

19	CCN(CC)CCOC(=O)c1ccc(NC(=O)c2ccc(Cl)c(S(=O)(=O)N3CCCCCC3)c2)cc1
20	CC(=O)c1cccc(NC(=S)NC(=O)c2cncc(Br)c2)c1
21	Cc1cc(-c2cc(C(=O)NCc3ccccc3)on2)nc(NCC2CC2)n1
22	CCOC(=O)N1CCN(C(=O)C2CCC(=O)N(CCc3ccccc3)C2)CC1 (stereo not drawn)
23	COc1ccccc1CNC(=O)c1ccccc1OCc1ccc(F)cc1
24	CCC(c1nnnn1C(C)(C)C)N1CCN(C(=O)c2ccco2)CC1 (stereo not drawn)

compound no.	19	20	21	22	23	24
PABP polyA inh	3	-1	-9	3	6	-2
MT1-MMP act inh	4	0	-4	-2	-12	1
MT1-MMP act inh RFP	-11	-3	0	2	-16	3
Env fusion inh	22	0	28	-12	22	-2
Rce1 inhib	i	i	i	i	i	i
CSC inhib	77*	-10	7	5	1	-7
eIF4H FP inh	-3	-3	-1	-8	5	-25
Yeast UUG start	·	-16	-1	-8	-10	-5

25	NS(=O)(=O)c1ccc(CNC(=O)C(Cc2ccccc2)NS(=O)(=O)c2ccccc2F)cc1 (stereo not drawn)
26	COc1ccc(S(=O)(=O)c2c(O)c3ccc(C(=O)Nc4ccc(F)cc4)cc3[nH]c2=O)cc1
27	COc1ccc2[nH]c3c(c2c1)CC(C)NC3=O (stereo not drawn)
28	Cc1ccc(/C=C(\NC(=O)c2ccccc2)C(=O)N2CCCCC2)cc1
29	COc1ccccc1OCCn1c(C)c(C=O)c2ccccc21
30	Clc1cccc(/C(Cc2nc3ccccc3[nH]2)=N\Nc2ccccc2)c1

compound no.	25	26	27	28	29	30
PABP polyA inh	-10	21	-10	-6	-4	16
MT1-MMP act inh	-5	2	-14	1	-4	-4
MT1-MMP act inh RFP	0	1	-15	1	-28	-3
Env fusion inh	-6	-10	23	-3	22	-5
Rce1 inhib	i	i	i	i	i	i
CSC inhib	2	0	-20	5	-10	54
eIF4H FP inh	-4	-2	-12	-7	-4	2
Yeast UUG start	·	-3	-3	10	-1	·

31	CCN(Cc1ccccc1)C(=S)NC(=O)c1ccccc1Br
32	CCOC(=O)C(NCCc1ccccc1F)(NC(=O)CC)C(F)(F)F (stereo not drawn)
33	O=C(Nc1cccc(F)c1)NC1(C(=O)NCC2CCCO2)CCCCC1 (stereo not drawn)
34	Cc1ccc(C2=NC3(CCCC3)NC2=S)cc1

compound no.	31	32	33	34
PABP polyA inh	11	18	9	-2
MT1-MMP act inh	1	0	0	2
MT1-MMP act inh RFP	-5	1	3	0
Env fusion inh	-19	-3	-2	-7
Rce1 inhib	i	i	i	i
CSC inhib	-1	-5	-7	-12
eIF4H FP inh	1	3	-6	-7
Yeast UUG start	-25	·	-20	-13

# Not a retest: entries from further up.
1	CNC(=S)NNC(=O)Cc1ccccc1
2	CN1CCNC(=O)C1CC(=O)N1CC=C(c2ccc(F)cc2)CC1 (stereo not drawn)
3	O=C1c2ccccc2C(=O)c2c([N+](=O)[O-])ccc(O)c21
4	CCCS(=O)(=O)c1c(S(=O)(=O)CCC)c2cnccn2c1C(=O)c1ccc(F)cc1
5	Cc1cc(C(F)(F)F)cc(NNC(=O)NC(=O)c2ccccc2Cl)n1
6	Cc1ccc(CN(C)C(=O)c2ccc(NS(=O)(=O)c3ccc4[nH]c(=O)[nH]c4c3)cc2)cc1
7	Cc1cc(C)cc(NC(=O)N2CCCN(c3ncccc3[N+](=O)[O-])CC2)c1
8	CCN(CC)CCNC(=O)CCN1N=C(c2ccccc2)CCC1=O

compound no.	1	2	3	4	5	6	7	8
PABP polyA inh	1	-6	16	-2	-5	·	10	2
MT1-MMP act inh	3	5	59	0	4	-5	2	1
MT1-MMP act inh RFP	3	-1	52	1	-1	1	1	3
Env fusion inh	-16	-4	-5	·	2	-9	10	-8
Rce1 inhib	i	i	·	i	i	i	i	i
CSC inhib	-16	-13	13	·	-8	-4	3	-25
eIF4H FP inh	-17	-13	18	5	12	·	6	0
Yeast UUG start	-28	0	-1	-28	-3	1	-4	5

9	O=C(Nc1ccccc1)c1ccccc1Oc1ccc(C(F)(F)F)cc1[N+](=O)[O-]
10	CCOc1ccc(C(=O)c2ccccc2C(=O)O)cc1OCC
11	CCOC(=O)c1ccc(NC(=O)CN2CCN(CCN=CC3=C(O)CC(C)(C)CC3=O)CC2)cc1
12	COc1cc2c(c(OC)c1OC)-c1ccc(OC)c(=O)cc1[C@@H](N(C)CC#CCO)CC2

compound no.	9	10	11	12
PABP polyA inh	4	-6	8	-3
MT1-MMP act inh	1	1	5	25
MT1-MMP act inh RFP	-2	2	-3	3
Env fusion inh	17	-10	1	-244
Rce1 inhib	i	i	·	i
CSC inhib	12	-19	·	65
eIF4H FP inh	-7	22	10	-3
Yeast UUG start	·	-5	-7	-7

# The list is partial (hit frequency here may not be typical).
